CtBP-E1A blk = qHTS Assay for Inhibitors of the CtBP/E1A Interaction; CtBP / adenovirus E1A interaction (AlphaScreen); AlphaScreen GST-E1A/His-CtBP binding, 1536-well; active compounds read low; control for the full effect not named in the record; activity change, % (test concentration not listed); actives 0.49% (n = 340,000); AID 651724, 2012; in the data active means activity change below about -65%; inconclusive means about -30% to -65%; inactive means above about -30%; further: on the % scale 0 is the no-effect control and ±100 the full control effect
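In 5 uL wells, 23 nL compound meets equimolar GST-E1A and His-CtBP (5X stock 125 nM each) for 2 h, 37 °C. Beads (5X, 50 ug/mL) then 1 h, 37 °C, dark.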
D2 ag = Beta-Arrestin HTS for Positive Allosteric Modulators of the Human D2 Dopamine Receptor: Agonists; DiscoveRx PathHunter D2 beta-arrestin, luminescence, 90 min; 100% = 57 uM dopamine signal; D(2) dopamine receptor (Homo sapiens), P14416; actives 0.084% (n = 360,000); activation, % (no concentration beside the values); AID 624465, 2012; in the data active = activation above about 40%; inconclusive = about 15% to 40%; inactive = below about 15%; further: compound concentration not given in the record; the text of the record calls up to 30% inactive
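DiscoveRx PathHunter D2 beta-arrestin cells (2,100/well) attached overnight, then compound-stimulated 90 min at 37 C in HBSS/10 mM HEPES/0.1% Tween-20 buffer; beta-galactosidase complementation read by luminescence after 1 h at ambient temperature. Dopamine 57 uM final (EC100) as control.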
gsp antagonist = qHTS for Antagonists of gsp, the Etiologic Mutation Responsible for Fibrous Dysplasia/McCune-Albright Syndrome: qHTS; gsp-mutant cells, cAMP HTRF, 30 min; control for the full effect not named in the record; Potency, µM (highest dose often 76.9 µM), for the others: top-dose activity change, negative = inhibition, usual class: inhibitors; actives 0.4% (n = 340,000); AID 624288, 2012; active = falling curve of any shape with a large fitted effect; inconclusive = falling curve, mostly with a smaller effect; inactive = flat or rising curve; cell line not stated here;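 further: intracellular cAMP measured with PDE inhibitor Ro 20-1724 present during compound exposure; potency means the concentration at half of the fitted maximal effect; on the % scale 0 is the no-effect control and ±100 the full control effect; nearly all actives have a fitted effect of over 65% in size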
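Cells in G418 medium, seeded 16-24 h, 37C; buffer exchange to DPBS + 1 mM CaCl2, 0.5 mM MgCl2, 0.05% BSA; cpds in DMSO + […] (300 uM stock), 30 min 37C; HTRF cAMP detection.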
Six1-Eya2 inh = qHTS Assay for Inhibitors of the Six1/Eya2 Interaction; Homeobox protein SIX1 (Homo sapiens) + Protein phosphatase EYA2 (Homo sapiens), …; AlphaScreen GST-Six1/His-Eya2 binding, biochemical; active compounds read low; control for the full effect not named in the record; activity change, % (test concentration not listed); actives 0.56% (n = 360,000); AID 651725, 2012; in the data active = activity change below about -65%; inconclusive = about -30% to -65%; inactive = above about -30%; further: on the % scale 0 is the no-effect control and ±100 the full control effect
Target sequence (O00167 whole entry, looked up): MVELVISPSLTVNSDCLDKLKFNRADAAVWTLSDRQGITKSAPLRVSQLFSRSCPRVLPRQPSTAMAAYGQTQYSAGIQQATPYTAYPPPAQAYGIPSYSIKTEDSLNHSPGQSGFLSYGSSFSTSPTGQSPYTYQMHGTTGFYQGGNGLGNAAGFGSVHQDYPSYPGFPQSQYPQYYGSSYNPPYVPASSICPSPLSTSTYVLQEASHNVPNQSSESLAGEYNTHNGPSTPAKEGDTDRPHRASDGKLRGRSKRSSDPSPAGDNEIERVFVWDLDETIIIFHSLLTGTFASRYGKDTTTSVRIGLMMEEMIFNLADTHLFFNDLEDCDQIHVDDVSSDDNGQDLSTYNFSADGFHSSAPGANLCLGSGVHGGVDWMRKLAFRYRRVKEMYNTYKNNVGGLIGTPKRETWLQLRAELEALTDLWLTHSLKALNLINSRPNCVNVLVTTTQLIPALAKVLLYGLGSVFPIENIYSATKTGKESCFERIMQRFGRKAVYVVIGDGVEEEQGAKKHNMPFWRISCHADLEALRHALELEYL
Target sequence (Q15475 whole entry, looked up): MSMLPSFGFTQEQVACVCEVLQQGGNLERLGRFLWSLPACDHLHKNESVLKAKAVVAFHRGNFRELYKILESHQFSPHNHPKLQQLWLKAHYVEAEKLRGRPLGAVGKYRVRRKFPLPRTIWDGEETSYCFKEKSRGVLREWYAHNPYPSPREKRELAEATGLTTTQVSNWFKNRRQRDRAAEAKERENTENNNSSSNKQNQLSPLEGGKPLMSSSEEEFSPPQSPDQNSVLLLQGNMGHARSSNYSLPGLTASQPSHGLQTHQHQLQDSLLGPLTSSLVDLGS
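Six1/Eya2 binding was read as AlphaScreen signal after compounds were pinned into GST-Six1 plus His-tagged Eya2 (5X stock 250/500 nM) in pH 8.0 Tris/NaCl/TCEP buffer, beads added, then incubated 1 h, 37 C, dark.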
gsp agonist = qHTS for Agonist of gsp, the Etiologic Mutation Responsible for Fibrous Dysplasia/McCune-Albright Syndrome: qHTS | AID 624287, 2012 | actives 0.13% (n = 340,000) | gsp mutant cells, cAMP HTRF, 30 min; control for the full effect not named in the record | Potency, µM (highest dose often 76.9 µM), without a hit: at the highest dose activation (cAMP increase), hits mostly activators; active = well fitted activation curve with a large enough effect; inconclusive = small, poorly fitted or top-dose-only effect, or another doubt; inactive = no such curve, though single readings can be large or run the other way; cell line not stated here;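 further: phosphodiesterase inhibitor Ro 20-1724 added with compounds to block cAMP breakdown; potency means the concentration at half of the fitted maximal effect; nearly all actives have a fitted effect of over 60% in size; about a fifth of the inactives were tested at one dose only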
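Cells in DMEM/10% FBS with G418 were pretreated with compounds in DMSO plus […] (300 uM stock) for 30 min at 37C. cAMP was measured by HTRF (cAMP-d2 plus anti-cAMP antibody-K) after 30 min at room temperature.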
D2 potentiator = Beta-Arrestin HTS for Positive Allosteric Modulators of the Human D2 Dopamine Receptor: Potentiators; AID 624464, 2012; actives 0.23% (n = 360,000); DiscoveRx D2 beta-arrestin cells, luminescence, 90 min; 100% = 57 uM dopamine signal; D(2) dopamine receptor (Homo sapiens), P14416; potentiation, % (test concentration not listed); active = potentiation of 50% or more; inconclusive = 30% to 50%; inactive = 30% or less;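 further: compound concentration not given in the record; tested on top of an EC20 dose of dopamine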
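PathHunter D2 cells, attached overnight at 37 deg C, received compound in DMSO plus dopamine at EC20 (50 nM final) for 90 min at 37 deg C. Beta-arrestin recruitment was read as luminescence after 1 h with detection reagent at ambient temperature.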
Active calls of the source: *; ? = inconclusive; nt = not tested or not shown; [ ] = another dose, or the depositor's remark. Rows were taken by chance. Share with any hit: about 1.4%.

SMILES	CtBP-E1A blk	D2 ag	gsp antagonist	Six1-Eya2 inh	gsp agonist	D2 potentiator
CC(=NNC(=S)N1CCN(C2CCCCCC2)CC1)c1ccccn1	-0.3	-11.1	10.4%	-92.4*	-38.2%[inhibitor]	-43.0
Cc1ccnc(NS(=O)(=O)c2ccc(NC(=O)c3cccc(Cl)c3)cc2)n1	0.4	-1.7	nt	-2.5	?	-6.5
COc1cccc(OCc2nnc(SCC(=O)OCc3ccccc3)o2)c1	28.7	-4.8	-10.5%	32.9	0.3%	-5.0
COc1ccc2cc(CN(CC3CCCO3)C(=O)Nc3ccccc3)c(=O)[nH]c2c1 (configuration not stated)	4.4	5.6	-1.5%	-0.8	20.5%	-9.3
CCOC(=O)c1sc(=S)n(-c2ccc(Cl)cc2)c1C	-3.2	-2.1	-1.1%	-2.9	-5.5%	-15.1
CC1=Nc2cccc([N+](=O)[O-])c2NC(=O)C1	-1.1	6.3	-8.0%	-0.6	-7.6%	3.1
COc1cccc(OC)c1OCCCNC1CCCC1	-17.4	-4.3	-7.9%	6.9	5.6%	-2.5
CC(NC(=O)C(=O)N/N=C\c1ccc([N+](=O)[O-])cc1)c1ccccc1 (configuration not stated)	-11.7	2.6	8.8%	3.0	-11.2%[15.4 µM]	18.3
CC(=O)c1ccccc1NC(=O)CSc1nc2ccccc2c(=O)n1CCCN1CCOCC1	2.4	-2.0	-13.7%	9.0	15.7%[15.4 µM]	-25.8
Cc1ccc(NC(=O)CNC(=O)c2ccc(C(C)(C)C)cc2)cc1S(=O)(=O)N1CCOCC1	0.4	3.6	-8.1%	10.0	-2.4%	-13.0
C=CCn1c(=O)c2ccccc2n2c(SC(C)C(N)=O)nnc12 (configuration not stated)	5.8	0.8	2.7%	2.5	12.0%	8.8
CS(=O)(=O)c1ccc(C(=O)OCc2nnc(-c3ccc(Cl)cc3)o2)cc1[N+](=O)[O-]	-0.6	-3.9	18.0%	-16.0	-18.6%[15.4 µM]	-21.6
COC(=O)c1ccc(C(=O)OC)c(NC(=O)C(C)C)c1	4.0	3.4	1.1%	11.8	10.3%	-4.1
CC[C@]12CCCN3CCc4c(n(c5ccccc45)C(=O)C1)[C@@H]32	-5.2	-2.9	-14.9%	-10.9	nt	4.6
Cc1ccc(OCC(=O)NNC(=O)c2cc3ccccc3o2)cc1	4.7	-2.5	-14.7%	4.8	3.1%	5.6
Cc1ccc(C)c(S(=O)(=O)Nc2cc3c4c(c2)CCC(=O)N4CCC3)c1	-24.8	-5.1	-10.3%	-3.2	4.9%[15.4 µM]	-1.0
CCN(CC)CC(=O)Nc1ccc(C)cc1Br	37.7	-0.8	1.0%	27.7	-22.0%	-8.9
COCCn1c(=NC(=O)c2cc(Cl)sc2Cl)sc2cc(S(N)(=O)=O)ccc21	-16.9	-1.2	-26.7%	2.5	-2.0%[15.4 µM]	-17.1
OC[C@@H]1CN(Cc2ccc(F)cc2)C[C@H](n2cnc3c(NC4CC4)ncnc32)O1	-20.2	-6.8	nt	5.1	nt	-2.5
Cc1ccc(C(=O)N2CCN(S(=O)(=O)c3ccccc3[N+](=O)[O-])CC2)o1	nt	-4.7	-2.1%	-4.0	3.8%	-10.7
C#Cc1ccc(NC(=O)C2(C)CCN2C(=O)Cc2ccc(-c3ccccc3)cc2)cc1 (configuration not stated)	0.4	9.7	nt	-3.8	nt	-2.6
Cc1ccccc1-c1noc(CNC(=O)COc2ccccc2)n1	17.2	1.1	3.2%	5.7	?	2.6
CCOC(=O)C1=C(C)N(CC(C)C)C(=O)/C1=C\c1cccs1	-8.6	-1.6	-4.5%	-12.5	-2.7%[15.4 µM]	-6.6
CS(=O)(=O)N1CCC(C(=O)Nc2cc(Cl)cc(Cl)c2)CC1	1.0	-1.4	-7.6%	11.0	6.4%[15.4 µM]	-10.5
CC1(C)CC(=O)C(CS(=O)(=O)c2ccccc2)=C(O)C1	7.4	-4.2	5.1%	27.9	?	-4.1

A different layout for part of the listing above.
Values in the order – CtBP-E1A blk, D2 ag, gsp antagonist, Six1-Eya2 inh, gsp agonist, D2 potentiator
Cc1ccc(C)c(S(=O)(=O)Nc2cc3c4c(c2)CCC(=O)N4CCC3)c1
→ -24.8, -5.1, -10.3%, -3.2, 4.9%[15.4 µM], -1.0
CS(=O)(=O)N1CCC(C(=O)Nc2cc(Cl)cc(Cl)c2)CC1
→ 1.0, -1.4, -7.6%, 11.0, 6.4%[15.4 µM], -10.5
CCN(CC)CC(=O)Nc1ccc(C)cc1Br
→ 37.7, -0.8, 1.0%, 27.7, -22.0%, -8.9
CCOC(=O)c1sc(=S)n(-c2ccc(Cl)cc2)c1C
→ -3.2, -2.1, -1.1%, -2.9, -5.5%, -15.1

Next section
SMILES	CtBP-E1A blk	D2 ag	gsp antagonist	Six1-Eya2 inh	gsp agonist	D2 potentiator
COc1ccc(-c2ccc([C@H]3[C@H]4C=CC[C@@H](C)[C@@H]4C(=O)N3Cc3ccccc3)c(F)c2)cc1OC	-12.9	-5.1	-11.9%	-13.4	nt	-9.7
COc1ccc(Nc2nc(N)nc(CN3CCC(C)CC3)n2)cc1	1.7	-2.6	10.1%	2.5	-2.5%[15.4 µM]	-17.4
Cc1nc(S(=O)(=O)Nc2ccccc2C(=O)NCC2CC2)cn1C	5.5	2.3	7.8%	-1.2	4.1%[15.4 µM]	-4.6
CN(C)C1=NCCN1CC1CCCCCC1	8.1	-4.5	3.9%	3.3	24.0%	-10.9
Cn1c(NCC(O)c2ccccc2)nc2c1c(=O)n(Cc1ccc(Cl)c(Cl)c1)c(=O)n2C (configuration not stated)	?	2.1	-10.3%	?	0.7%	54.1*
C[C@@H]1CN([C@@H](C)CO)C(=O)CCCn2nncc2CO[C@H]1CN(C)S(=O)(=O)c1ccc(C#N)cc1	-26.7	-2.9	nt	8.6	-22.1%	5.7
CCCn1c(SCC(=O)NC2CCCC(C)C2C)n[nH]c1=O (configuration not stated)	3.0	0.8	7.2%	12.1	1.3%	-11.8
COc1ccc(C(=O)NCCNc2nc3c(C)cccc3cc2C#N)cc1OC	-0.5	-4.0	-6.5%	9.3	-6.6%	-1.7
Cc1ccc(-c2nnc(NCc3nc4ccccc4[nH]3)c3ccccc23)cc1S(=O)(=O)N1CCCCC1	-15.0	-1.3	3.7%	-12.7	12.4%[15.4 µM]	-26.5
COc1ccc(C(=O)NCC(=O)N/N=C/C=C/c2ccccc2)cc1OC	-8.2	-2.9	-0.3%	1.7	-4.7%	-5.4
CCCCn1cnc2c(SCc3ccccn3)nc(N)nc21	-0.2	-0.9	5.5%	6.3	6.7%	-1.8
CCCC[C@@H]1CNC(=O)C(=O)N1CCc1cc(C(F)(F)F)cc(C(F)(F)F)c1	nt	-1.5	-1.5%	0.1	?	-1.8
O=C(Nc1ccc(F)cc1F)c1ccc2c(c1)OCCO2	3.4	2.4	2.7%	-0.3	16.3%	-3.2
C=CCn1c(N)c(S(=O)(=O)c2cccs2)c2nc3ccccc3nc21	-4.1	-3.6	0.1%	0.0	-6.6%	-7.8
CCCCN(CC)CCNC(=O)Cn1cnc2sc(C)c(S(=O)(=O)N3CCC(C)CC3)c2c1=O	-4.6	3.5	2.2%	3.0	16.0%	-6.2
CCCCN(CCCC)CCNC(=O)CN1C(=O)CSc2ccc(S(=O)(=O)N3CCCCC3)cc21	-1.9	1.3	6.8%	-5.5	6.0%	-14.7
CCOC(=O)CCNc1n[nH]c(=O)[nH]c1=O	5.9	-2.6	6.2%	8.0	8.9%	6.2
CCOc1ccc(OCCC(=O)N(CCC2=CCCCC2)c2c(N)n(Cc3ccccc3)c(=O)[nH]c2=O)cc1	0.1	1.2	-11.1%	3.0	-5.0%	9.0
CCOc1ccc(Cc2nnc(N)s2)cc1OCC	13.7	-0.2	1.3%	1.8	-1.6%	0.3
O=C(Nc1ccc(C(=O)O)cc1)/C(=C/c1ccc2c(c1)OCO2)NC(=O)c1cccc(Br)c1	-19.3	-0.1	0.1%	-5.0	-25.7%	-5.3
CCc1ccccc1N(CC(=O)N1CCCCC1)S(=O)(=O)c1ccccc1	-0.4	-11.2	-0.5%	2.5	-4.4%[15.4 µM]	-12.9
COc1cc2cc(c1Cl)N(C)C(=O)CC(OC(=O)C(C)N(C)C(C)=O)C1(C)OC1C(C)C1CC(O)(NC(=O)O1)C(OC)C=CC=C(C)C2 (configuration not stated)	9.1	-0.4	7.0%	0.2	24.7%	0.4
Cn1c2c(c(=O)n(C)c1=O)CN(CC1CCCO1)CN2 (configuration not stated)	3.8	0.3	11.4%	4.7	6.7%	-10.7
S=c1[nH]cc(-c2ccc(Cl)cc2)n1Cc1ccccc1	8.7	5.1	13.8%	1.9	?	-3.6
CC(=O)Nc1ccc(OCCOc2ccccc2C(C)=O)cc1	-21.3	-4.5	-6.8%	-2.4	8.2%	-4.2

Carrying on:
SMILES	CtBP-E1A blk	D2 ag	gsp antagonist	Six1-Eya2 inh	gsp agonist	D2 potentiator
CC(C)(C)C(=O)N1CCN(c2ncnc3scc(-c4ccccc4)c23)CC1	-0.2	2.0	-14.6%	-6.6	2.3%	-13.9
CCCc1nc2ccccc2n1Cc1ccccc1OC	-1.4	-2.9	-8.4%	0.3	-1.4%[15.4 µM]	-4.1
CC1CCC2(CC1)NC(=O)N(CC(=O)c1cn(CCC#N)c3ccccc13)C2=O (configuration not stated)	nt	-2.5	0.1%	2.8	-19.8%	-12.5
C(=N\n1cnnc1)/c1cn(Cc2ccccc2)c2ccccc12	-0.7	-1.9	1.4%	-2.4	-45.6%[inhibitor]	-5.3
O=C(Cn1cnc2ccccc2c1=O)NCCC(=O)N1CCN(Cc2ccccc2)CC1	4.9	-1.5	6.3%	5.0	-67.2%[inhibitor]	9.0
O=C(Cn1sc2ccccc2c1=O)Nc1ccc(Cl)cc1	-6.2	-1.8	nt	-7.6	-32.4%[inhibitor]	nt

2 compounds drawn at random from those above, as already listed:
SMILES	CtBP-E1A blk	D2 ag	gsp antagonist	Six1-Eya2 inh	gsp agonist	D2 potentiator
O=C(Cn1sc2ccccc2c1=O)Nc1ccc(Cl)cc1	-6.2	-1.8	nt	-7.6	-32.4%[inhibitor]	nt
C(=N\n1cnnc1)/c1cn(Cc2ccccc2)c2ccccc12	-0.7	-1.9	1.4%	-2.4	-45.6%[inhibitor]	-5.3

Compound activity from PubChem.
